Source: PubChem
MLL AF4-AF9 inh – blocks AF4 peptide binding to human AF9 | P42568 | AlphaScreen, biotin-AF4 peptide binding to FLAG-AF9 | inhibition, % at 10 µM | hit rate 0.47% among 350,000 | AID 651704;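 active = every replicate reaching a set inhibition limit, whatever the replicate mean, cut at about 25% in these data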;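 note: 0% = plate neutral control median and 100% = total signal loss; the record names both 10 and 1 µM as test concentration; the first replicate is given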
Target sequence (P42568 whole entry, looked up): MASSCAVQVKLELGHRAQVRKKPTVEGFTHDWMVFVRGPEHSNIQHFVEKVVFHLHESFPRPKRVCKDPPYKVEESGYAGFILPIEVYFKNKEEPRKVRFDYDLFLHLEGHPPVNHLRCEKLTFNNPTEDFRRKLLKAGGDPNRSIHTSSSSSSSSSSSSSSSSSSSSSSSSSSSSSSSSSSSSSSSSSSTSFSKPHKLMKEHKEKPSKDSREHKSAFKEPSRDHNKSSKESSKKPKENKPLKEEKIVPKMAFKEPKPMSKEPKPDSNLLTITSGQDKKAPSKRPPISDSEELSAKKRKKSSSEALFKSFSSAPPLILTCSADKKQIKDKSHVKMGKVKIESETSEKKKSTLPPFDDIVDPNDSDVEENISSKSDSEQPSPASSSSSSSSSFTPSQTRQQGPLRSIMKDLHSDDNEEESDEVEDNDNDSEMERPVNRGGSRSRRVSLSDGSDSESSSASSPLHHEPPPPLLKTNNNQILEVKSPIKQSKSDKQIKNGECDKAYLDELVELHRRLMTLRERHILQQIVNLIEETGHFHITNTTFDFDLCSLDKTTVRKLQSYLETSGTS
FGF22 binding – FGF22 (human) thermal shift binding; Q9HCT0; recombinant FGF22 thermal shift, SYPRO orange fluorescence; percent of sucrose octasulfate shift, DMSO zero; calls only at 9.99 µM; hit rate 1.5% among 340,000;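 active = melting point raised past a set limit in the mean and every replicate; three in four hits are not shown here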
Target sequence (Q9HCT0 whole entry, looked up): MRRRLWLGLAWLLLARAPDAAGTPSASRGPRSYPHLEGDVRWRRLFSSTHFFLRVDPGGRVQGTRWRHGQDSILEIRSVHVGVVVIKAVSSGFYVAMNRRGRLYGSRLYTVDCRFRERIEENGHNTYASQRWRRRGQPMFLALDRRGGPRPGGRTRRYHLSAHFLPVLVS
rRNA inh HTS – inhibitors of bacterial rRNA selective over humanized ribosomes | hit rate 1.6% among 350,000 | GFP signal change (wild-type ribosome), % (no concentration beside the values) | E. coli WT GFP vs humanized-ribosome RFP mutants, fluorescence, 24 h; hits give low values; DMSO median 0, no signal -100;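 active = significant combined selectivity score with lowered wild-type GFP, culture density cut under 30%, mutant RFP and density less affected; inactive = any of these conditions unmet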; note: one replicate is shown; some compounds called inactive have numbers as strong as hits
rRNA inh HTS OD600 – also measured in rRNA inh HTS; calls as there; OD600 change, %; measured here: OD600 growth;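 optical density of the mix in the first replicate; 0 = DMSO median and -100 = no signal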
rRNA inh HTS RFP – second read-out of rRNA inh HTS, no call of its own (marks repeat the call); RFP signal change, %; measured here: RFP humanized mutant strains;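 first replicate; 0 = DMSO median and -100 = no signal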
Numbers without * were called inactive; & = joins results of further samples.

Results for COc1ccc(S(=O)(=O)N(C)C[C@@H]2Oc3ncc(C#CCN(C)C)cc3C(=O)N([C@H](C)CO)C[C@@H]2C)cc1 ?
MLL AF4-AF9 inh: -2.5; FGF22 binding: inactive; rRNA inh HTS: 0; rRNA inh HTS OD600: -2; rRNA inh HTS RFP: -2.6

How did O=C([C@@H]1[C@@H](CO)[C@@H]2Cn3c(cccc3=O)[C@H]1N2Cc1cccc(Cl)c1)N1CCOCC1 do in these assays?
MLL AF4-AF9 inh: -3.2; FGF22 binding: inactive; rRNA inh HTS: -2; rRNA inh HTS OD600: 4; rRNA inh HTS RFP: -1.9

How did C[C@@H](NC(=O)C[C@@H]1C[C@H]2c3cc(NC(=O)c4cccnc4)ccc3O[C@H]2[C@@H](CO)O1)c1ccccc1 do in these assays?
MLL AF4-AF9 inh: -1.4; FGF22 binding: inactive; rRNA inh HTS: 4; rRNA inh HTS OD600: 7; rRNA inh HTS RFP: 0.4

How did C[C@H](C(=O)N(C)C[C@@H]1OCc2ccccc2-c2c(n(C)c3ccccc23)C(=O)N([C@@H](C)CO)C[C@H]1C)c1ccccc1 do in these assays?
MLL AF4-AF9 inh: 5.6; FGF22 binding: inactive; rRNA inh HTS: -1; rRNA inh HTS OD600: 0; rRNA inh HTS RFP: -1.2

How did COc1ccc(N2CCN(C(=O)c3ccc4c(c3)NC(=O)C(CSCc3ccccc3F)N4)CC2)cc1 (centres undefined) do in these assays?
MLL AF4-AF9 inh: -4.6; FGF22 binding: inactive; rRNA inh HTS: 9; rRNA inh HTS OD600: 2; rRNA inh HTS RFP: -0.5

Results for CCCC(=O)Nc1ccc2c(c1)C(=O)N(C)[C@@H]1CC[C@@H](CC(=O)N3CCCCC3)O[C@@H]1CO2 ?
MLL AF4-AF9 inh: -0.9; FGF22 binding: inactive; rRNA inh HTS: -1; rRNA inh HTS OD600: 4; rRNA inh HTS RFP: -2.5

What do the screens show for `O=C(O)C[C@@H]1C[C@@H]2c3cc(NC(=O)NC4CCCC4)ccc3O[C@@H]2[C@H](CO)O1`?
MLL AF4-AF9 inh: -1.3; FGF22 binding: inactive; rRNA inh HTS: 7; rRNA inh HTS OD600: 1; rRNA inh HTS RFP: -1.1

How did COCCc1ccc(OC2(C)CCN(Cc3cccc(OCOC)c3)C2)cc1 (centres undefined) do in these assays?
MLL AF4-AF9 inh: 4.3; FGF22 binding: inactive; rRNA inh HTS: 6; rRNA inh HTS OD600: 3; rRNA inh HTS RFP: 0.5

What do the screens show for `COc1ccc(S(=O)(=O)Nc2cccc3c2O[C@@H](CN(C)C(=O)NC(C)C)[C@H](C)CN([C@@H](C)CO)C3=O)cc1`?
MLL AF4-AF9 inh: -1.7; FGF22 binding: inactive; rRNA inh HTS: 3; rRNA inh HTS OD600: -2; rRNA inh HTS RFP: 1.3

How did O=C(C[C@H]1C[C@@H]2c3cc(NC(=O)NC4CCCC4)ccc3O[C@@H]2[C@H](CO)O1)NCc1ccc2c(c1)OCO2 do in these assays?
MLL AF4-AF9 inh: -0.7; FGF22 binding: active; rRNA inh HTS: 1; rRNA inh HTS OD600: 6; rRNA inh HTS RFP: 0.8

How did CN1CCCC1(C)C(=O)Nc1ccc(-n2cccc2)cc1 (centres undefined) do in these assays?
MLL AF4-AF9 inh: 8.7; FGF22 binding: inactive; rRNA inh HTS: 13; rRNA inh HTS OD600: 10; rRNA inh HTS RFP: 1.3

What do the screens show for `CC(C)NC(=O)Nc1ccc2c(c1)C(=O)N([C@@H](C)CO)C[C@@H](C)[C@@H](CN(C)S(=O)(=O)c1ccccc1)O2`?
MLL AF4-AF9 inh: -1.8; FGF22 binding: inactive; rRNA inh HTS: 0; rRNA inh HTS OD600: 3; rRNA inh HTS RFP: 4.6

Results for CN1c2ccc(-c3cccc(F)c3)cc2[C@@H]2[C@@H](CCN2C(=O)Cc2cccnc2)[C@@H]1CO ?
MLL AF4-AF9 inh: -1.4; FGF22 binding: inactive; rRNA inh HTS: -34; rRNA inh HTS OD600: -62; rRNA inh HTS RFP: 6.4

What do the screens show for `C[C@@H](NC(=O)C[C@H]1C[C@@H]2c3cc(NC(=O)Nc4ccccc4F)ccc3O[C@@H]2[C@H](CO)O1)c1ccccc1`?
MLL AF4-AF9 inh: 0.4; FGF22 binding: inactive; rRNA inh HTS: -1; rRNA inh HTS OD600: 8; rRNA inh HTS RFP: 3.3

What do the screens show for `COCC(=O)N(C)C[C@H]1Oc2cc(C3=CCCC3)ccc2S(=O)(=O)N([C@H](C)CO)C[C@H]1C`?
MLL AF4-AF9 inh: -2.1; FGF22 binding: inactive; rRNA inh HTS: 0; rRNA inh HTS OD600: -1; rRNA inh HTS RFP: -0.5

Results for O=C(C[C@H]1C[C@H]2c3cc(NC(=O)c4cccnc4)ccc3O[C@H]2[C@@H](CO)O1)NCc1cccc(F)c1 ?
MLL AF4-AF9 inh: -1.5; FGF22 binding: inactive; rRNA inh HTS: 3; rRNA inh HTS OD600: 7; rRNA inh HTS RFP: 1.3

What do the screens show for `CC(C)NC(=O)N1CC2(C1)[C@H](c1ccccc1)[C@@H](CO)N2C(=O)C1CCOCC1`?
MLL AF4-AF9 inh: -2.3; FGF22 binding: inactive; rRNA inh HTS: 0; rRNA inh HTS OD600: 10; rRNA inh HTS RFP: -2.1

How did COc1cccc(-c2cnc3c(c2)C(=O)N([C@@H](C)CO)C[C@@H](C)[C@H](CN(C)C(=O)CN(C)C)O3)c1 do in these assays?
MLL AF4-AF9 inh: -7.9; FGF22 binding: inactive; rRNA inh HTS: 1; rRNA inh HTS OD600: 10; rRNA inh HTS RFP: -5.6

What do the screens show for `C[C@@H]1CN([C@H](C)CO)C(=O)c2cc(NC(=O)Cc3ccccc3)ccc2O[C@H]1CN(C)C(=O)Nc1ccc(F)cc1`?
MLL AF4-AF9 inh: 0.6; FGF22 binding: inactive; rRNA inh HTS: 2; rRNA inh HTS OD600: 2; rRNA inh HTS RFP: 0.1

What do the screens show for `O=C(C(=O)N1CCN(C(=O)c2cccs2)CC1)c1cccc(C(F)(F)F)c1`?
MLL AF4-AF9 inh: -3.1; FGF22 binding: inactive; rRNA inh HTS: 6; rRNA inh HTS OD600: 6; rRNA inh HTS RFP: 1.9

What do the screens show for `COc1ccc(S(=O)(=O)Nc2ccc3c(c2)CC(=O)N([C@H](C)CO)C[C@H](C)[C@H](CN(C)S(=O)(=O)c2ccc(OC)cc2)O3)cc1`?
MLL AF4-AF9 inh: 0.2; FGF22 binding: inactive; rRNA inh HTS: -1; rRNA inh HTS OD600: -1; rRNA inh HTS RFP: 0.0

Results for Cn1c(=S)c2[nH]c(SCc3cccnc3)nc2n(C)c1=O ?
MLL AF4-AF9 inh: -3.2; FGF22 binding: inactive; rRNA inh HTS: 2; rRNA inh HTS OD600: 2; rRNA inh HTS RFP: -2.3

What do the screens show for `CC(OC(=O)Cc1n[nH]c(=O)c2ccccc12)C(=O)N(C)c1ccccc1` (centres undefined)?
MLL AF4-AF9 inh: -6.0; FGF22 binding: inactive; rRNA inh HTS: 8; rRNA inh HTS OD600: 5; rRNA inh HTS RFP: 3.6

How did COc1ccc(S(=O)(=O)N[C@@H]2C=C[C@@H](CC(=O)NCc3ccccc3F)O[C@H]2CO)cc1 do in these assays?
MLL AF4-AF9 inh: 0.3; FGF22 binding: inactive; rRNA inh HTS: -4; rRNA inh HTS OD600: -2; rRNA inh HTS RFP: -0.2

What do the screens show for `C[C@@H]1CN([C@H](C)CO)S(=O)(=O)c2ccc(C3=CCCC3)cc2O[C@H]1CN(C)C(=O)C1CCC1`?
MLL AF4-AF9 inh: -3.0; FGF22 binding: inactive; rRNA inh HTS: -7; rRNA inh HTS OD600: -12; rRNA inh HTS RFP: 0.0

What do the screens show for `COc1ccc(CC(N)c2csc(Nc3ccccn3)n2)cc1` (centres undefined)?
MLL AF4-AF9 inh: 11; FGF22 binding: inactive; rRNA inh HTS: 0; rRNA inh HTS OD600: -3; rRNA inh HTS RFP: 2.9

Results for CN1[C@@H]2c3ccc(-c4ccccc4)c(=O)n3C[C@@H]2[C@@H](CO)[C@@H]1C(=O)NCCc1ccccc1 ?
MLL AF4-AF9 inh: 0.0; FGF22 binding: inactive; rRNA inh HTS: -3; rRNA inh HTS OD600: -6; rRNA inh HTS RFP: 2.5

Results for C[C@H](CO)N1C[C@H](C)[C@@H](CN(C)S(=O)(=O)c2ccc(Cl)cc2)Oc2c(NS(C)(=O)=O)cccc2C1=O ?
MLL AF4-AF9 inh: -1.8; FGF22 binding: inactive; rRNA inh HTS: 1; rRNA inh HTS OD600: -1; rRNA inh HTS RFP: 0.1

What do the screens show for `COc1ccc(NC(=O)N[C@H]2CC[C@@H](CCn3cc(-c4ccccn4)nn3)O[C@H]2CO)cc1`?
MLL AF4-AF9 inh: -1.4; FGF22 binding: inactive; rRNA inh HTS: 2; rRNA inh HTS OD600: 11; rRNA inh HTS RFP: -1.6

Results for C[C@@H]1CN([C@@H](C)CO)C(=O)c2cccc(NC(=O)Nc3ccccc3)c2O[C@@H]1CN(C)Cc1ccc(-c2ccccc2)cc1 ?
MLL AF4-AF9 inh: 2.3; FGF22 binding: inactive; rRNA inh HTS: 2; rRNA inh HTS OD600: -11; rRNA inh HTS RFP: 3.6

Next part; the last four above are carried over.
Results for CN1[C@@H]2c3ccc(-c4ccccc4)c(=O)n3C[C@@H]2[C@@H](CO)[C@@H]1C(=O)NCCc1ccccc1 ?
MLL AF4-AF9 inh: 0.0; FGF22 binding: inactive; rRNA inh HTS: -3; rRNA inh HTS OD600: -6; rRNA inh HTS RFP: 2.5

Results for C[C@H](CO)N1C[C@H](C)[C@@H](CN(C)S(=O)(=O)c2ccc(Cl)cc2)Oc2c(NS(C)(=O)=O)cccc2C1=O ?
MLL AF4-AF9 inh: -1.8; FGF22 binding: inactive; rRNA inh HTS: 1; rRNA inh HTS OD600: -1; rRNA inh HTS RFP: 0.1

What do the screens show for `COc1ccc(NC(=O)N[C@H]2CC[C@@H](CCn3cc(-c4ccccn4)nn3)O[C@H]2CO)cc1`?
MLL AF4-AF9 inh: -1.4; FGF22 binding: inactive; rRNA inh HTS: 2; rRNA inh HTS OD600: 11; rRNA inh HTS RFP: -1.6

Results for C[C@@H]1CN([C@@H](C)CO)C(=O)c2cccc(NC(=O)Nc3ccccc3)c2O[C@@H]1CN(C)Cc1ccc(-c2ccccc2)cc1 ?
MLL AF4-AF9 inh: 2.3; FGF22 binding: inactive; rRNA inh HTS: 2; rRNA inh HTS OD600: -11; rRNA inh HTS RFP: 3.6

How did C[C@H](CO)N1C[C@H](C)[C@H](CN(C)CC2CC2)OCCCC[C@H](C)Oc2ccc(NC(=O)NC3CCCCC3)cc2C1=O do in these assays?
MLL AF4-AF9 inh: 9.7; FGF22 binding: inactive; rRNA inh HTS: 2; rRNA inh HTS OD600: 4; rRNA inh HTS RFP: -2.0

How did O=C(Nc1ccccc1F)N1C[C@@H]2[C@H](c3ccccc31)[C@@H](CO)N2C(=O)c1ccc(F)cc1 do in these assays?
MLL AF4-AF9 inh: -1.3; FGF22 binding: inactive; rRNA inh HTS: 0; rRNA inh HTS OD600: 0; rRNA inh HTS RFP: -0.9

How did O=C(NCc1nnc(SCC(=O)N2CCOCC2)o1)c1ccccc1 do in these assays?
MLL AF4-AF9 inh: -1.4; FGF22 binding: inactive; rRNA inh HTS: 10; rRNA inh HTS OD600: 16; rRNA inh HTS RFP: -1.9

Results for CC=Cc1ccc2n(c1=O)C[C@@H]1[C@@H](CO)[C@H](C(=O)NCC)[C@H]2N1C(=O)C1CC1 (mixture of isomers) ?
MLL AF4-AF9 inh: 0.8; FGF22 binding: inactive; rRNA inh HTS: 0; rRNA inh HTS OD600: -9; rRNA inh HTS RFP: -2.0

How did CCC(=O)Nc1ccc2c(c1)C(=O)N(C)C[C@H](OC)[C@@H](C)CN(Cc1ccccc1C(=O)O)[C@@H](C)CO2 do in these assays?
MLL AF4-AF9 inh: -14; FGF22 binding: inactive; rRNA inh HTS: 3; rRNA inh HTS OD600: 3; rRNA inh HTS RFP: -0.8

What do the screens show for `O=C(C[C@H]1CC[C@@H](NC(=O)Cc2cccnc2)[C@@H](CO)O1)NCc1ccc2c(c1)OCO2`?
MLL AF4-AF9 inh: -15&-3.8; FGF22 binding: inactive; rRNA inh HTS: 4&8; rRNA inh HTS OD600: 5&8; rRNA inh HTS RFP: 1.9&3.2

Results for C=CCNc1cccc2c1S(=O)(=O)N[C@H](Cc1ccccc1)CO2 ?
MLL AF4-AF9 inh: -6.6; FGF22 binding: inactive; rRNA inh HTS: -14; rRNA inh HTS OD600: -8; rRNA inh HTS RFP: -5.8

How did CCCOc1ccc(C(=O)NC(=S)N2CCN(c3ncc4c(=O)c(C(=O)O)cn(CC)c4n3)CC2)cc1 do in these assays?
MLL AF4-AF9 inh: -6.1; FGF22 binding: inactive; rRNA inh HTS: -44; rRNA inh HTS OD600: -71; rRNA inh HTS RFP: -15

How did CCC(=O)N(C)C[C@@H]1[C@@H](c2ccc(C3=CCCCC3)cc2)[C@H](CO)N1C(C)=O do in these assays?
MLL AF4-AF9 inh: -13; FGF22 binding: inactive; rRNA inh HTS: -3; rRNA inh HTS OD600: -9; rRNA inh HTS RFP: -0.5

How did CCCNC(=S)NC1CC2CCCC(C1)N2Cc1ccccc1OC (centres undefined) do in these assays?
MLL AF4-AF9 inh: 2.0; FGF22 binding: inactive; rRNA inh HTS: 7; rRNA inh HTS OD600: 14; rRNA inh HTS RFP: -1.8

An excerpt; rates above refer to the full screens.
